Rango release inh: inhibition of RanGTP-driven Rango-importin beta dissociation; O95149+P62826; Potency, µM (highest dose often 46.1 µM), without a hit: at the highest dose activity change, negative = inhibition; Biochemical FRET Rango-importin beta, RanGTP-induced dissociation; 340,000 tested, 0.071% active; active means falling FRET ratio curve, often poorly fitted, with flat reads before Ran was added; inconclusive means other falling curves, or compound fluorescence or quenching; inactive means flat or rising ratio curve;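 further: potency means the concentration at half of the fitted maximal effect; % of control where 0% means no effect; nearly all actives have a fitted effect of over 45% in size; -100% = wells without RanGTP and RCC1; the record marks most hits as doubtful in a second field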
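Compounds preincubate 5 min with complex of recombinant Rango and importin beta in PBS with 1 mM DTT. Ran (0.6 uM) loaded with 2 mM GTP plus 0.2 uM RCC1 starts dissociation; FRET is recorded 45 min later.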
miR-21 FLuc: raises the signal of a miR-21 reporter; 340,000 tested, under 10 active; Potency, µM (doses to about 38.3 µM), inactives show top-dose reporter change, positive = more light; HeLa miR-21 FLuc reporter, luciferase, 48 h; active = well fitted rising curve with a large enough effect; inconclusive = small, poorly fitted or top-dose-only effect; inactive = no such curve, though single readings can be large or run the other way;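 further: % of control where 0% means no effect; miR-21 action dims this reporter so a rising signal means less miR-21 action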
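Compounds were titrated across several concentrations (up to approximately 40 uM) and incubated 48 hours with HeLa miR-21-FLuc reporter cells (miR-21 target sequence downstream of FLuc, endogenous miR-21). Readout was firefly luciferase luminescence after lytic detection reagent.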
Rango complex inh: prevents formation of the Rango-importin beta complex; Q14974; Potency, µM (highest dose often 92.2 µM), for the others: at the highest dose inhibition of complex formation; 340,000 tested, 0.031% active; Rango CFP/YFP FRET sensor + importin beta, 45 min; active = rising FRET ratio curve, often small or poorly fitted; inconclusive = mostly compound fluorescence or quenching in the first reads; inactive = flat curves in all reads;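 further: potency means the concentration at half of the fitted maximal effect; 0% = DMSO wells and 100% = buffer wells lacking importin beta; nearly all actives have a fitted effect of over 15% in size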
Target sequence (Q14974 whole entry, looked up): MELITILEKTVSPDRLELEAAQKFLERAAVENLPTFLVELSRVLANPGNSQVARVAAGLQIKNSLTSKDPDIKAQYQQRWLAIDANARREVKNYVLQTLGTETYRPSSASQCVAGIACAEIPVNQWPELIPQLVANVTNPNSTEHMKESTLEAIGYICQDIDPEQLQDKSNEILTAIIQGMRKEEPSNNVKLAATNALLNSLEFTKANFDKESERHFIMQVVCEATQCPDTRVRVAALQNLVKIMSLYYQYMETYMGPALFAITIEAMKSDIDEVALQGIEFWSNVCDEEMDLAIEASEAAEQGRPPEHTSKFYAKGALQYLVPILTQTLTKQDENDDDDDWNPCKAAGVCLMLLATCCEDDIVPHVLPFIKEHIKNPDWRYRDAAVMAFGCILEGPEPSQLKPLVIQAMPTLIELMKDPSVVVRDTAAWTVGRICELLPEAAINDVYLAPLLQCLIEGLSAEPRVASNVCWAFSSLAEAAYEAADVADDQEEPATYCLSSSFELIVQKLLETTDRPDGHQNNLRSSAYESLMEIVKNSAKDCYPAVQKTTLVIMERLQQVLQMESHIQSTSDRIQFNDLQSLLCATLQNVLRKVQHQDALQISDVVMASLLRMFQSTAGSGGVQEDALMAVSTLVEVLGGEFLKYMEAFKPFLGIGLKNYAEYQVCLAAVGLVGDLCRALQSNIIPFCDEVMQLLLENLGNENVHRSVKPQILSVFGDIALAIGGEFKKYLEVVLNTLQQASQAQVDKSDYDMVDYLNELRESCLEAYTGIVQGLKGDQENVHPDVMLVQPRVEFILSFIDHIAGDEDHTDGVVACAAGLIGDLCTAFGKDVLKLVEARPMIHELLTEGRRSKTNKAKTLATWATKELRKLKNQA
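FRET biosensor (snurportin 1 IBB flanked by EYFP and cerulean), 50 nM, with compound 5 min, then 0.125 microM importin beta in PBS, 1 mM DTT, 0.02% Tween-20, 0.1% BSA. CFP/YFP ratio read after 45 min at room temperature; pre-read flags interference.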
GLA inh pH 4.5: inhibitors of human alpha-galactosidase A at pH 4.5. P06280. purified enzyme, 4-MU-alpha-Gal fluorescence, pH 4.5. activity change, negative = inhibition, % at 105 µM. 230,000 tested, under 10 active. AID 1467; inconclusive = small, poorly fitted or top-dose-only inhibition, or a rising curve; inactive = flat fitted curve, though single readings scatter; no compound was filed as active;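 further: 0% = full activity with enzyme and -100% = basal without enzyme; dose as in the result columns while the protocol names 77 µM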
* = called active by the depositor; ? = inconclusive; · = no result given. Only part of the results is shown; rates above refer to the full screens.

SMILES | Rango release inh | miR-21 FLuc | Rango complex inh | GLA inh pH 4.5
Cc1nn(C)c2ncc(C(N)=O)c(Oc3ccc(Cl)cc3)c12 | 6% | -1% | 2.0% | -21
O=C(C1CC1)N1CCN(c2ccc(F)cc2)CC1 | -1% | -4% | 3.9% | ·
CC(=O)c1ccc(Nc2c3c(nc4ccccc24)CCCC3)cc1 | ? | 14% | 0.6% | -4
NC(=O)c1nn(-c2ccc(Cl)cc2Cl)c(=O)cc1O | 0% | 4% | -2.6% | 0
S=C(Nc1ccccn1)Nc1ccccc1Cl | 2% | -56% | -0.7% | 5
COc1ccccc1-n1c(-c2cn(C)nc2C)n[nH]c1=S | -6% | -3% | -0.1% | -1
CN1CCCN(S(=O)(=O)c2cccc(C(F)(F)F)c2)c2nc3ccccc3nc21 | -9% | · | -4.3% | ·
O=C(NCc1cccnc1)C1CCCN(S(=O)(=O)c2cccc3nsnc23)C1 (stereo unspecified) | 4% | -4% | -0.1% | 4
COCCCNC(=S)N1CCC(C(=O)c2ccc3c(c2)OCCO3)CC1 | 1% | -2% | -0.4% | 2
O=C(COC(=O)C1CCN(S(=O)(=O)c2cccs2)CC1)Nc1ccc(F)cc1F | -14% | 1% | -0.3% | -4
CN(CC(=O)Nc1ccc(N2CCOCC2)cc1)C(=O)CCNC(=O)c1ccc(Br)cc1 | -1% | · | -3.4% | ·
CCOC(=O)C1=C(C)N=C2SC(CC)C(=O)N2C1c1cccc(F)c1 (stereo unspecified) | 3% | 0% | 1.7% | -1
O=C(OCc1ccccc1)C1CCCN1C(=O)c1ccccc1[N+](=O)[O-] (stereo unspecified) | 10% | -5% | 3.4% | 0
CCc1c(C)nc2ncnn2c1Nc1ccc(C#N)c(Cl)c1 | -8% | 2% | 1.5% | -5
CCNS(=O)(=O)c1ccc(CCC(=O)NCc2cccnc2)cc1 | -8% | 2% | -2.6% | ·

No new results follow: three of the compounds above.
SMILES | Rango release inh | miR-21 FLuc | Rango complex inh | GLA inh pH 4.5
COc1ccccc1-n1c(-c2cn(C)nc2C)n[nH]c1=S | -6% | -3% | -0.1% | -1
CN1CCCN(S(=O)(=O)c2cccc(C(F)(F)F)c2)c2nc3ccccc3nc21 | -9% | · | -4.3% | ·
O=C(NCc1cccnc1)C1CCCN(S(=O)(=O)c2cccc3nsnc23)C1 (stereo unspecified) | 4% | -4% | -0.1% | 4

An excerpt of these results, as tab-separated lines:
canonical_smiles	Rango release inh	miR-21 FLuc	Rango complex inh	GLA inh pH 4.5
COc1ccccc1-n1c(-c2cn(C)nc2C)n[nH]c1=S	-6%	-3%	-0.1%	-1
CN1CCCN(S(=O)(=O)c2cccc(C(F)(F)F)c2)c2nc3ccccc3nc21	-9%	·	-4.3%	·

Next part.
SMILES | Rango release inh | miR-21 FLuc | Rango complex inh | GLA inh pH 4.5
COc1ccc2[nH]c3nc(SCC(=O)Nc4ccc5c(c4)OCO5)nnc3c2c1 | -9% | 1% | 0.6% | 3
CC(=O)c1c(C)[nH]c(C(=O)Nc2cccc(S(=O)(=O)N3CCCCC3)c2)c1C | -12% | · | -0.7% | ·
O=C(Nc1ccc(Cl)cc1C(=O)N1CCOCC1)c1cccc([N+](=O)[O-])c1 | · | 0% | · | 4
COc1cc(C2=NOC(C(=O)Nc3cccnc3)C2)cc(OC)c1OC (stereo unspecified) | 9% | 1% | -1.7% | -22
O=C(Cn1ccc(=O)[nH]c1=O)NCCO | 0% | 0% | -2.6% | 5
CC(=O)Nc1cccc(OCCCNC(=O)c2ccc(F)cc2)c1 | -8% | -25% | -3.0% | 6
Cc1ccc(-c2nnc(COc3cccc(-n4cnnn4)c3)o2)cc1 | -13% | -18% | 1.6% | 2
O=C(/C=C/c1ccccc1)N1c2ccccc2Sc2ccc(C(F)(F)F)cc21 | 2% | -6% | 2.7% | -5
COC(=O)c1ccccc1NC(=O)C/C(C)=N/NC(=O)CC#N | -1% | -4% | 2.7% | 5
Cc1cc(C)cc(OCC(=O)Nc2ccc3c(c2)OCCO3)c1 | 6% | -32% | 0.7% | 2
COc1cc(C(O)P(=O)(OCC(C)C)OCC(C)C)cc(OC)c1OC (stereo unspecified) | 17% | -1% | -5.7% | 4
O=C(O)c1ccc(Nc2nc3ccccc3nc2NS(=O)(=O)c2cccs2)cc1 | 3% | 1% | 1.2% | ·
CCOC(=O)Nc1ccc2c(c1)ncn2C1CCCCC1 | -16% | -58% | -5.5% | 1
COc1cc(CO)ccc1Oc1nc2ccccc2n2cnnc12 | -12% | -6% | 3.9% | -4
NS(=O)(=O)c1ccc(CCNS(=O)(=O)c2ccc(Cl)nc2)cc1 | 16% | -7% | -0.5% | 1
CN1CCN(c2nc(-c3ccccc3)cc(C(F)(F)F)n2)CC1 | -13% | 0% | 0.7% | -2
C[C@H]1CN([C@@H](C)CO)C(=O)c2cccc(NC(=O)Nc3ccc(C(F)(F)F)cc3)c2O[C@@H]1CN(C)Cc1ccc(Cl)c(Cl)c1 | 17% | · | 0.7% | ·
COc1ccccc1Nc1nc(N)nc(CSC(=S)N2CCOCC2)n1 | 0% | -63% | 0.8% | -2
COC(=O)c1cccc(NC(=O)CN2CCOCC2)c1 | 13% | -2% | -0.9% | 14
CCOc1ccc(-c2nnc(NC(=O)C3CCCC3)o2)cc1 | 22% | -40% | -0.9% | ·
COc1ccc(C2=NOC(C)(c3nnc(Cc4ccccc4)o3)C2)cc1 (stereo unspecified) | -15% | · | 0.4% | ·
O=C(NCCc1ccccc1)c1nc2ncccn2n1 | -10% | -1% | 0.0% | -8
CC1CCN(C(=S)NC(=O)c2ccc(F)cc2)CC1 | 1% | · | -3.4% | ·
COc1cccc(C(=O)OC2CCCN(C)C2)c1 (stereo unspecified) | -10% | 0% | -2.4% | 6
CCN1CCC(O)(/C=C/c2ccc(C)cc2)C(C(=O)/C=C/c2ccc(C)cc2)C1 (stereo unspecified) | -10% | · | 9.3% | ·
OC(COCC1COc2ccccc2O1)CN1CCc2ccccc2C1 (stereo unspecified) | -9% | 1% | 0.7% | -3
O=C(OCCN1C(=O)c2ccccc2C1=O)C1CC(O)CN1S(=O)(=O)c1ccc(Cl)cc1 (stereo unspecified) | 0% | · | 6.4% | ·
O=C(O)CCCCCN1C(=O)/C(=C\c2ccc(-c3ccc(Cl)cc3)o2)SC1=S | -3% | -2% | ? | -7
CCCc1nc(SCC(=O)N2CCOCC2)c2c(C)c(C)sc2n1 | -11% | -6% | 3.9% | ·
Cc1ccc(-c2nn[nH]n2)cc1Cl | 2% | -20% | 1.2% | 1

Copied from the list:
Result of `CC(=O)Nc1cccc(OCCCNC(=O)c2ccc(F)cc2)c1` under GLA inh pH 4.5: 6
Result of `O=C(O)CCCCCN1C(=O)/C(=C\c2ccc(-c3ccc(Cl)cc3)o2)SC1=S` under GLA inh pH 4.5: -7

The listing continues.
SMILES | Rango release inh | miR-21 FLuc | Rango complex inh | GLA inh pH 4.5
O=C(NC(=O)c1ccc(Cl)c(Cl)c1)OC1CCS(=O)(=O)C1 (stereo unspecified) | -2% | -8% | 2.4% | -20
Cc1cc(/C=C(\C#N)C(=O)Nc2ccccc2F)c(C)[nH]1 | ? | -71% | ? | -10
COCCSc1nnc(NC(=O)C2CC(=O)N(c3ccc(OC)cc3)C2)s1 (stereo unspecified) | -9% | 2% | 2.5% | 2
CC1CCc2c(sc3ncnc(NS(=O)(=O)c4cccs4)c23)C1 (stereo unspecified) | -6% | -1% | 0.1% | -6
Cn1c(/C(C#N)=C(\O)c2ccc(Br)s2)nc2ccccc21 | 11% | -4% | -5.0% | ·
Cc1ccc(S(=O)(=O)NCc2nnc(SCC(=O)Nc3cccc(C)c3C)n2C)cc1 | 14% | -4% | -1.8% | -3
Cc1ccc(NC(=O)C2CCCN(S(=O)(=O)c3c(C)noc3/C=C/N(C)C)C2)cc1F (stereo unspecified) | ? | 6% | ? | 0
CN(Cc1ccccc1)S(=O)(=O)CCNC(=O)c1ccc2c(c1)OCO2 | -2% | · | -2.0% | ·
COC(=O)/C(C#N)=C1/C=Cc2ccccc2N1 | ? | -29% | ? | -3
O=C(NNc1c(Cl)cccc1Cl)c1sccc1Cl | -1% | -7% | 0.6% | -7
COc1ccccc1C1CC(c2ccc(C)cc2)Nc2ncnn21 (stereo unspecified) | -8% | 0% | -1.6% | 4
O=C(/C=C/c1ccc(O)c(O)c1)c1ccc(S(=O)(=O)N2CCCCCC2)cc1 | -25% | 0% | 1.0% | 2
Cc1ccc(S(=O)(=O)N(CC(=O)NCc2ccccc2Cl)C(=O)N2CCN(C)CC2)cc1 | 6% | · | -1.0% | ·
CC(=O)Nc1ccc(NC(=O)C(C)OC(=O)C2CCN(S(=O)(=O)c3ccc4c(c3)OCCO4)CC2)cc1 (stereo unspecified) | -15% | · | -0.9% | ·
CCOC(=O)c1ccc(N2C(=O)c3n[nH]c(C)c3C2c2ccccc2)cc1 (stereo unspecified) | -13% | 0% | 0.3% | 3
CC1C(C#N)=C(N)OC2=C1C(=O)CC(C)(C)C2 (stereo unspecified) | -6% | 4% | -1.9% | 5
CN(C)C(=O)CN1C(=O)C2CCCCN2C(=O)c2ccccc21 (stereo unspecified) | 0% | -5% | 2.7% | 10
CCCCCc1cc(OC)cc2c1C(=O)OC(C)(C)O2 | 17% | · | -1.4% | ·
COc1ccccc1N1C(=NC(=O)CCC2CCCC2)SC2CS(=O)(=O)CC21 (stereo unspecified) | 0% | -1% | 3.0% | ·
CCCCn1c(N)c(N(CCOC)C(=O)c2ccc(N3C(=O)CCC3=O)cc2)c(=O)[nH]c1=O | 0% | · | -0.2% | ·
COC(=O)c1ccccc1NC(=O)N1c2ccccc2CC1C (stereo unspecified) | 12% | -4% | 0.6% | -1
Cc1cccc2sc(NC(=O)c3cc(S(=O)(=O)N(C)C)ccc3N3CCCC3)nc12 | 13% | -2% | 7.1% | -12
O=C(CN1CCCC1)Nc1ccc([N+](=O)[O-])cc1Cl | 18% | 3% | -0.3% | -3
Cc1c(C)c2ccc(OCC(=O)c3ccccc3)cc2oc1=O | 26% | -20% | ? | ·
COc1ccccc1NS(=O)(=O)c1cc(NC(=O)C2CCCC2)ccc1N1CCOCC1 | 5% | -7% | 0.5% | 1
Nc1nonc1-c1nc2ccccc2n1Cc1ccc(Cl)cc1 | -15% | 0% | -0.1% | 1
Cc1ccc2c(c1)N(C(=O)CCC(=O)NCCCN1CCN(C)CC1)CC(C)O2 (stereo unspecified) | -7% | 2% | -3.7% | ·
CCCc1c(C(=O)N/N=C/c2ccccc2C(F)(F)F)nnn1-c1nonc1N | 14% | -4% | 2.0% | ·
Cc1nn(-c2nc3ccccc3[nH]2)c(N)c1-c1ccccc1 | 9% | -58% | -0.7% | 0
O=c1c2ccccc2nc(CSc2nnnn2-c2ccccc2)n1-c1cccc(C(F)(F)F)c1 | 2% | 0% | 0.1% | 6
CSCCC(C(=O)NCc1cccs1)N1C(=O)c2ccccc2C1=O (stereo unspecified) | -6% | -1% | -0.1% | 5
O=C(Nc1ccc(S(=O)(=O)N2CCOCC2)cc1)c1cc(-c2ccccc2O)n[nH]1 | 6% | 12% | 0.5% | -6
COc1ccc(C2(C(=O)Nc3ccc(S(N)(=O)=O)cc3)CCCC2)cc1 | -15% | 1% | 1.6% | -3
CCc1ccc(Oc2cc(Cl)nc(N)n2)cc1 | 3% | -58% | 0.8% | 7
COC(=O)c1sccc1NC(=O)CC1C(=O)NCCN1C(=O)c1ccc(C)c(C)c1 (stereo unspecified) | 6% | -14% | -3.6% | 9
Cc1ccc(C)c(CN2C(=O)c3ccccc3S(=O)c3ccc(C(=O)NCCCN4CCCC4)cc32)c1 (stereo unspecified) | -9% | -1% | -0.1% | ·
C/C(=N/NC(=O)CNC(=O)c1ccccn1)c1ccc([N+](=O)[O-])cc1 | -9% | 2% | -2.0% | 2
COc1ccc(-n2nc(C(=O)NCC(=O)NC3CCCCCC3)c3ccccc3c2=O)cc1OC | ? | 9% | ? | ·
CCN(CC)CCCNC(=O)c1cc2c(=O)n(C)c3ccccc3c2n1C | -3% | -10% | -0.4% | -1
Cc1c(NC(=S)NC(=O)CC(C)C)c(=O)n(-c2ccccc2)n1C | -1% | 1% | 1.4% | -9
CCOC(=O)N1CCN(C(=O)c2oc3ccc(S(=O)(=O)N4CCCCCC4)cc3c2C)CC1 | 23% | 2% | 1.7% | -6

Assay outcomes (PubChem)
